SMN2 splice enh – qHTS Assay for Enhancers of SMN2 Splice Variant Expression; HEK293 SMN2-luciferase splicing reporter, luminescence, 30-36 h; Potency, µM (series often up to 46.1 µM), inactives show at the top dose activity change, positive = activation, most hits filed as activators; 210,000 tested, 2.8% active; further: % of control where 0% means no effect; nearly all actives have a fitted effect of over 55% in size
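HEK293 cells carry an SMN2 minigene-luciferase reporter in which exon 7 inclusion puts luciferase in frame. Cells were seeded at 2000 cells/well, attached for 10-12 hours, then exposed to compounds for 30-36 hours at 37C before ONE-Glo luminescence.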
Luc counter – Counterscreen for Luciferase (Kinase-Glo TM) Inhibition | Luciferin 4-monooxygenase (Photuris pensylvanica), Q27757 | Potency, µM (highest dose often 38.3 µM), for the others: top-dose activity change, negative = inhibition, most hits filed as inhibitors | Kinase-Glo luciferase, ATP luminescence, 8 min | 200,000 tested, 0.28% active; further: on the % scale 0 is the no-effect control and ±100 the full control effect; nearly all actives have a fitted effect of over 60% in size
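Recombinant Kinase-Glo luciferase, 10 uM ATP (linear range), luciferin; imidazole pH 7.2 / KCl / MgCl2 / Tween / BSA buffer; 8 min RT; luminescence.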
ALDH1A1 inh – qHTS Assay for Inhibitors of Aldehyde Dehydrogenase 1 (ALDH1A1). Aldehyde dehydrogenase 1A1 (Homo sapiens), P00352. 220,000 tested, 7.3% active. AID 1030, 2008. Purified ALDH1A1, NADH fluorescence, propionaldehyde substrate. Potency, µM (doses to about 75.3 µM), inactives show at the highest dose activity, negative = inhibition, hits mostly inhibitors; active means well fitted inhibition curve with a large enough effect, not every such curve was filed as active; inconclusive means small, poorly fitted or top-dose-only effect, or another doubt; inactive means no such curve, though single readings can be large or run the other way;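 further: plate controls were no enzyme wells and a reference inhibitor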
RECQ1 helicase – qHTS Assay for Inhibitors of RecQ-Like Dna Helicase 1 (RECQ1) | Potency, µM (top dose mostly 57.3 µM), without a hit: at the highest dose activity, negative = inhibition, hits mostly inhibitors | 240,000 tested, 0.54% active | RECQ1 DNA unwinding, red fluorescence kinetic read | ATP-dependent DNA helicase Q1 (Homo sapiens), P46063 | AID 2549, 2010;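 further: plate controls were vehicle for no effect and no enzyme for full effect; nearly all actives have a fitted effect of over 30% in size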
Target sequence (P46063 whole entry, looked up): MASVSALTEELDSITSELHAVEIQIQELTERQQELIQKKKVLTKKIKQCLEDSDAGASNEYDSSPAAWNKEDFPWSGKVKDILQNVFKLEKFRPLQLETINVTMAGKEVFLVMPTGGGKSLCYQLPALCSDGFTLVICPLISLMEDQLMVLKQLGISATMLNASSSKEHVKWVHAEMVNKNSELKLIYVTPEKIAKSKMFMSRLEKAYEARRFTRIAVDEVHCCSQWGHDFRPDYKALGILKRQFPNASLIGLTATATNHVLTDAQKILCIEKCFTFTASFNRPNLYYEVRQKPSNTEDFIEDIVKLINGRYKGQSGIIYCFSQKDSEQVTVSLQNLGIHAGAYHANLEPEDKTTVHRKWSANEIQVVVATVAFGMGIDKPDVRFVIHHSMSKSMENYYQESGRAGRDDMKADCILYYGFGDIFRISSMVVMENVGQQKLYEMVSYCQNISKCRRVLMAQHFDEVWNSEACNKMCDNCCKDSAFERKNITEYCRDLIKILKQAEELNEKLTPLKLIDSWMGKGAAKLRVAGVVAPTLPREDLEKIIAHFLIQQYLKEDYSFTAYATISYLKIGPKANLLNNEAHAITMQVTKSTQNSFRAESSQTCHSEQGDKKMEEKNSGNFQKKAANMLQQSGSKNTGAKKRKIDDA
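RECQ1T1 50 nM; forked duplex (20 bp + 30-nt ss tails) 200 nM, ATP 2 mM final; pH 8.0, 2 mM MgCl2, 2.5 ug/ml poly(dI-dC); 15 min compound preincubation; discontinuous kinetic read over 2 h at RT.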
Tau ThT inhib – qHTS for Inhibitors of Tau Fibril Formation, Thioflavin T Binding; 270,000 tested, 2.1% active; recombinant tau K18 P301L (four-repeat tau fragment), heparin-induced fibrillization, ThT fluorescence; Potency, µM (doses to about 57.4 µM), inactives show at the top dose activity, negative = inhibition, most hits filed as inhibitors; Microtubule-associated protein tau (Homo sapiens), P10636; AID 1460, 2008; further: on the % scale 0 is the no-effect control and ±100 the full control effect; nearly all actives have a fitted effect of over 55% in size
Target sequence (P10636 561-689 P618L limits assumed): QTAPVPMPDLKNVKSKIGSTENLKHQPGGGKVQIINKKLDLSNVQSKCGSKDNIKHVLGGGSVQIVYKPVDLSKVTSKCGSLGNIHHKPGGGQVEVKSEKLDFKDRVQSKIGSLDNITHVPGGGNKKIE
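Aggregation was driven by heparin (20 uM final) acting on recombinant tau […] bearing P301L in 100 mM sodium acetate pH 7; fibrils were detected with Thioflavin T.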
KDM4E inh – qHTS Assay for Inhibitors of Human Jumonji Domain Containing 2E (JMJD2E) | AID 2147, 2009 | Potency, µM (titrated, usually from 57.1 µM), inactives show at the highest dose activity change, negative = inhibition, usual class: inhibitors | 230,000 tested, 1.6% active | JMJD2E catalytic domain, FDH-coupled NADH fluorescence (FDH is formaldehyde dehydrogenase) | Lysine-specific demethylase 4E (Homo sapiens), B2RXH2; active means well fitted inhibition curve with a large enough effect, not every such curve was filed as active; inconclusive means small, poorly fitted or top-dose-only effect, or another doubt; inactive means no such curve, though single readings can be large or run the other way;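 further: 0% = wells with enzyme and -100% = buffer wells without enzyme; nearly all actives have a fitted effect of over 50% in size; many of its hits are not listed in these tables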
Target sequence (B2RXH2 1-337 limits assumed): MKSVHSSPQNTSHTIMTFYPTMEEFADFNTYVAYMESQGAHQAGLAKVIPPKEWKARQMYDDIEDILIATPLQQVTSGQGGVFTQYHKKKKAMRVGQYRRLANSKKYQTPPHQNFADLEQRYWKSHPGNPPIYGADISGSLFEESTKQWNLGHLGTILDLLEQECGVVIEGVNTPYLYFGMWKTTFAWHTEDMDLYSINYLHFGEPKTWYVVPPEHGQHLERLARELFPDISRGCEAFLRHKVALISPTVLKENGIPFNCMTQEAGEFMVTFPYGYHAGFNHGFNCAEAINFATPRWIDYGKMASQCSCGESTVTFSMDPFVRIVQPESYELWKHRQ
LMNA splice mod – qHTS Assay for Modulators of Lamin A Splicing | 200,000 tested, 0.01% active | Potency, µM (series often up to 46.1 µM), without a hit: at the highest dose ratio change, negative = inhibition, actives largely listed as inhibitors | HeLa LMNA splicing GFP/RFP minigene ratio, 48 h; active means well fitted inhibition curve with a large enough effect in the signal ratio, with a control signal flat, not every such curve was filed as active; inconclusive means small, poorly fitted or top-dose-only effect, or effect the other way, or a change in a side signal; the % refers to the signal ratio; further: on the % scale 0 is the no-effect control and ±100 the full control effect
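Read-out is the ratio of GFP to DsRed2 object intensity, acquired by 488 nm laser-scanning cytometry on HeLa lamin A-EGFP minigene reporter cells. Compound incubation 48 hrs at 37 °C in Opti-MEM with 2% FBS; DMSO 0.5% final.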
Active calls of the source: *; i = inactive; ? = inconclusive; / = not tested or not shown; [ ] = remark or other dose. Unless noted, the call rests on the fitted dose curve; in most records, active means well fitted curve in the direction sought with a large enough effect; inconclusive means small, poorly fitted or top-dose-only effect, or another doubt; inactive means no such curve, though single readings can be large; an effect the other way counts as inactive or inconclusive. Potency means the concentration at half of the fitted maximal effect. These rows are one share of the data, so the mix of outcomes need not match the whole.

The opening 2 records (preview)
Values run as follows: SMN2 splice enh | Luc counter | ALDH1A1 inh | RECQ1 helicase | Tau ThT inhib | KDM4E inh | LMNA splice mod
O=C(c1ccco1)N(CCC(c1ccccc1)c1ccco1)Cc1ccc(F)cc1 (stereo not given)
 : -15% | 0% | 14µM* | -18% | -12% | 4% | ?
CC(NC(=O)c1ccc(Br)s1)c1ccncc1 (stereo not given)
 : -11% | 3% | ? | i | 0% | -5% | /

Main list, from the first entry:
Values run as follows: SMN2 splice enh | Luc counter | ALDH1A1 inh | RECQ1 helicase | Tau ThT inhib | KDM4E inh | LMNA splice mod
O=C(c1ccco1)N(CCC(c1ccccc1)c1ccco1)Cc1ccc(F)cc1 (stereo not given)
 : -15% | 0% | 14µM* | -18% | -12% | 4% | ?
CC(NC(=O)c1ccc(Br)s1)c1ccncc1 (stereo not given)
 : -11% | 3% | ? | i | 0% | -5% | /
O=C(COc1ccccc1)NNC(=S)NC(=O)c1ccc(Cl)cc1Cl
 : 3% | 1% | 7.9µM* | 3% | ? | 0% | ?
N#C/C(=C/c1ccc(CNS(=O)(=O)c2ccccc2)o1)C(N)=O
 : ? | 5% | 6% | -1% | -3% | -3% | -10%
Nc1n[nH]c2cc(=O)n(-c3ccc(Cl)cc3)nc12
 : -14% | 3% | 1% | 19% | ? | -6% | -3%[46 µM]
Cc1cc(C)n(-c2ccc(C(=O)OCC(=O)NCc3ccco3)cc2)n1
 : -6% | 2% | -5% | -11% | -11% | -1% | 9%
Cc1cc(C)n(C(=O)CCCCCCCC(=O)n2nc(C)cc2C)n1
 : -2% | -1% | 17% | 6% | -14% | 8% | -5%
COC(=O)/C=C1/SC(=Nc2ccc(Cl)c(Cl)c2)NC1=O
 : / | / | -2% | 10% | ? | -2% | /
CCCOC(=O)c1ccc(O)c(OC)c1
 : / | -1% | -6% | -8% | -13% | ? | 21%[46 µM]
S=C(NCc1ccccc1)NCc1ccc2c(c1)OCO2
 : 13% | 3% | ? | -5% | -6% | 9% | 7%
Cc1ccccc1-n1c(SCC(=O)Nc2ccc3c(c2)OCO3)nnc1-c1ccccn1
 : -40%[inhibitor] | -2% | -13% | -3% | ? | 5% | -18%
CCOC(=O)CSc1cc(C)nc2ccc(OC)cc12
 : / | -3% | 4% | -9% | 1% | -5% | 8%[46 µM]
Cc1scc(C(=O)NCc2ccco2)c1-c1ccccc1
 : 3% | 2% | ? | -8% | -17% | -2% | 4%
COc1ccc(C2NC(c3ccc(OC)c(OC)c3OC)C(C)C(=O)C2C)c(OC)c1OC (stereo not given)
 : 0% | -1% | 7% | 1% | -4% | ? | -14%
CSc1nc2ccccc2s1
 : -8% | 1% | 1% | -13% | -8% | 0% | 7%
S=c1[nH]nc(-c2ccncc2)n1/N=C/C(Cl)=C\c1ccccc1
 : 11µM* | 1% | -14% | i | ? | -7% | -12%[46 µM]
O=C(Nc1ccc2c(c1)nc1n2CCSC1)c1ccco1
 : -14% | 10µM* | ? | -10% | -1% | 6% | ?
Cc1cc(NC(=O)/C=C/c2ccc(Cl)cc2)no1
 : ? | -1% | -5% | -2% | -8% | -28% | 0%
CCc1nc(SCC(=O)N2CCCc3ccccc32)c2oc3ccccc3c2n1
 : -3% | 2% | -1% | i | ? | -6% | ?
CCOc1ccc(N=C2NC(=O)/C(=C/C(=O)OC)S2)cc1
 : -10% | -2% | -8% | -5% | ? | 0% | -20%
O=C(CSc1c[nH]c2ccccc12)N1CCCc2ccccc21
 : 3% | 4% | ? | i | ? | -1% | ?
O=C(NC1CCCCC1)C(c1ccccn1)N(C(=O)c1csnn1)C1CC1 (stereo not given)
 : -18% | -3% | 3% | 20% | 11% | 9% | /
CC(C)CNC(=S)NC(=O)c1ccc(Cl)cc1Cl
 : / | / | 22µM* | 2% | 12% | 0% | -16%
O=C(NN1C(=O)C2CC=C(Cl)CC2C1=O)c1ccncc1 (stereo not given)
 : / | -1% | 5% | 13µM* | -14% | -4% | 17%[46 µM]
O=C(CCCN1CCN(c2ccccn2)CC1)c1ccc(F)cc1
 : -51%[inhibitor] | -4% | -10% | -7% | -22% | -10% | ?
COc1ccc(-c2cc(C(F)(F)F)nc(SCCC(=O)NCc3ccco3)n2)cc1
 : -25% | 2% | 6% | 1% | -6% | ? | 3%
Cc1ccc(-n2c(-c3ccncc3)n[nH]c2=S)cc1C
 : -1% | 6% | ? | i | -4% | 3% | /
COc1cc(OC)cc(C(=O)Nc2nnc(-c3cccnc3)o2)c1
 : 12% | 8% | -2% | -2% | -12% | ? | ?
CCCn1nc(C(=O)OCC(=O)c2c(N)n(C)c(=O)n(C)c2=O)c2ccccc2c1=O
 : -2% | -2% | -7% | -12% | 10% | -9% | -9%[46 µM]
O=C(NNC(=O)c1ccccc1Cl)c1ccco1
 : / | / | / | i | -1% | 3% | /
COC(=O)Cc1ccc(NC(=O)c2ccc(Br)o2)cc1
 : ? | -10% | 2% | -4% | 2% | 3% | 6%
N#C/C(=C\c1ccco1)C(=O)Nc1cccc2ncccc12
 : -8% | 5% | -5% | -5% | -6% | ? | -16%
Cc1ccc(C(=O)OCC(=O)c2c(N)n(C)c(=O)n(C)c2=O)cc1S(=O)(=O)N1CCCCC1
 : -32% | -2% | 2% | -1% | 4% | 0% | ?
COC(=O)C1=C(O)/C(=C\c2ccc(CNS(=O)(=O)c3ccc(Cl)cc3)o2)N=C1C
 : 3% | 0% | -8% | 6% | ? | -6% | -9%
COc1cc2c(cc1OC)C(C(=O)N1CCCCC1)C(c1ccccc1F)N(C)C2=O (stereo not given)
 : -7% | 0% | 8% | i | -1% | ? | 9%
O=C(O)c1csc(-n2nc(-c3ccccc3)cc2C(F)(F)F)n1
 : 0% | 0% | ? | 14% | 0% | ? | 0%[46 µM]
CCN(CC)S(=O)(=O)c1ccc(OC)c(NC(=O)Cc2cccs2)c1
 : / | -1% | ? | ? | -22% | -6% | -15%[46 µM]
CNC(=O)c1[nH]cnc1C(=O)N[C@@H](CC(C)C)C(=O)OCc1ccccc1
 : / | / | 5% | -9% | 8% | 8% | /
Cc1cc(C)n(C(=O)CCCCCCCCC(=O)n2nc(C)cc2C)n1
 : -12% | 2% | 4% | -14% | -14% | 15% | 6%
N=c1c2cn[nH]c2nc(SCC(=O)c2ccc(Br)cc2)n1-c1ccc(Br)cc1
 : -3% | 6% | 7% | -1% | 4% | -3% | -4%[46 µM]
N#C/C(=C/c1ccc(-c2ccc(C(=O)O)c(Cl)c2)o1)C(=O)NCC1CCCO1 (stereo not given)
 : 9% | -1% | ? | -1% | -9% | -27% | 1%
Nc1cccc(O)c1
 : 3% | / | ? | 1% | / | / | /
Cc1cc(C)cc(C(=O)NCC(=O)OCC(=O)NCC(F)(F)F)c1
 : 10% | 5% | 11% | i | 1% | 13% | ?
CCN(CC)C(=O)c1[nH]cnc1C(=O)N[C@@H](C)C(=O)OCc1ccccc1
 : / | / | -2% | -3% | -3% | 5% | /
CN1CSC2=C(C#N)C(c3cccc(OCc4ccccc4)c3)CC(=O)N2C1 (stereo not given)
 : -14% | -1% | 7.9µM* | -12% | ? | -3% | ?
COC(=O)/C=C1/S/C(=N/N=C/c2ccc(N(C)C)cc2)NC1=O
 : -1% | 2% | 6% | -1% | ? | 7% | -8%
CC(C)C[C@H](NC(=O)c1nc[nH]c1C(=O)N(C)Cc1ccccc1)C(=O)OCc1ccccc1
 : / | / | ? | -14% | -13% | 3% | /
Cc1cc(C)nc(SCc2nnc(SCC(=O)N3CCCc4ccccc43)o2)n1
 : -9% | -1% | ? | -12% | -11% | 5% | 0%
COc1ccc(NC(=O)CN(c2ccccc2)S(=O)(=O)N(C)C)cc1OC
 : 1µM* | 2% | ? | ? | 0% | 7% | 4%
CC(=C\C(=O)O)/C(=C/c1ccc(C)o1)C(=O)O
 : -4% | 8% | 22µM* | -5% | ? | -26% | -3%
COC(=O)C1=C(C)N(CCCC(=O)O)C(=O)NC1c1cc2c(cc1[N+](=O)[O-])OCO2 (stereo not given)
 : 3% | 2% | ? | ? | ? | ? | -4%
Cc1cc(=O)c2ccccc2[nH]1
 : -13% | -2% | 9% | -2% | 2% | -6% | 14%
O=[N+]([O-])c1ccc(/C=N/n2c(-c3cccnc3)n[nH]c2=S)cc1
 : / | / | 2.8µM* | -8% | 3% | 1% | -17%
COC(=O)CSc1nc(N2CCCCC2)c2c(c1C#N)CCCC2
 : -2% | 4% | ? | i | ? | ? | -1%
COc1ccc(-c2nc(C#N)c(NCCc3ccccc3)o2)cc1
 : ? | 0% | ? | -4% | ? | ? | -11%
CCOC(=O)c1ccc(S(=O)(=O)Nc2ccc3cn[nH]c3c2)cc1
 : -49%[inhibitor] | -3% | 1% | -1% | -21% | 5% | 7%
O=C(CCSc1nc(-c2ccc3c(c2)OCO3)cc(C(F)(F)F)n1)NCc1ccccc1
 : -17% | 4% | ? | -1% | 3% | ? | -3%
CSCCC(NC=O)C(=O)NC(CC(C)C)C(=O)NC(Cc1ccccc1)C(=O)O (stereo not given)
 : -19% | -1% | ? | i | 4% | -7% | /
CCOc1ccc(NC(=O)COC(=O)Cn2cnnn2)cc1OCC
 : -8% | 1% | -1% | i | -12% | 6% | -2%
Cc1nc(SCC(=O)Nc2ccc3c(c2)OCCO3)c2oc3ccccc3c2n1
 : -25% | -2% | 3% | 0% | -12% | -4% | 5%

The listing continues:
Values run as follows: SMN2 splice enh | Luc counter | ALDH1A1 inh | RECQ1 helicase | Tau ThT inhib | KDM4E inh | LMNA splice mod
COc1ccc(Cn2c(C)nc3oc4cc(OC)ccc4c(=O)c3c2=O)cc1
 : / | / | 0% | i | -3% | -1% | -7%
Cc1cccn2c(=O)c3cc(S(=O)(=O)c4ccccc4)c(=N)n(Cc4ccco4)c3nc12
 : -10% | 1% | ? | i | -8% | ? | -2%[46 µM]
Cc1nc(SCC(=O)O)c(C#N)c2c1CCCC2
 : / | / | / | -27% | -2% | -6% | /
S=C(NCc1ccco1)N/N=C/c1ccccc1Cl
 : -5% | -8% | 9% | i | -1% | 7% | ?
O=C(CSc1ccc(Cl)cc1)Nc1cccc(NC(=O)c2ccco2)c1
 : -2% | 1% | 2% | -11% | -2% | 0% | 2%

Compound activity (PubChem)
